Compound activity: PubChem, National Center for Advancing Translational Sciences (NCATS)
TSHR ag = TSH receptor (human) agonism; P16473; HEK293-CNG-TSHR cells (CNG channel as cAMP sensor), membrane potential dye, cAMP; Potency, µM (titrated, usually from 57.1 µM), without a hit: at the top dose activation, usual class: activators; actives 0.48% (n = 73,000); AID 926; active = well fitted activation curve of enough size with the parental cells flat; inconclusive = any curve in the parental cells; inactive = parental cells flat and receptor cells flat or falling; also: potency is read from the fitted curve at half-maximal effect; % of control where 0% means no effect; weak receptor curves with flat parental cells got no call and are not listed
Target sequence (P16473 whole entry, looked up): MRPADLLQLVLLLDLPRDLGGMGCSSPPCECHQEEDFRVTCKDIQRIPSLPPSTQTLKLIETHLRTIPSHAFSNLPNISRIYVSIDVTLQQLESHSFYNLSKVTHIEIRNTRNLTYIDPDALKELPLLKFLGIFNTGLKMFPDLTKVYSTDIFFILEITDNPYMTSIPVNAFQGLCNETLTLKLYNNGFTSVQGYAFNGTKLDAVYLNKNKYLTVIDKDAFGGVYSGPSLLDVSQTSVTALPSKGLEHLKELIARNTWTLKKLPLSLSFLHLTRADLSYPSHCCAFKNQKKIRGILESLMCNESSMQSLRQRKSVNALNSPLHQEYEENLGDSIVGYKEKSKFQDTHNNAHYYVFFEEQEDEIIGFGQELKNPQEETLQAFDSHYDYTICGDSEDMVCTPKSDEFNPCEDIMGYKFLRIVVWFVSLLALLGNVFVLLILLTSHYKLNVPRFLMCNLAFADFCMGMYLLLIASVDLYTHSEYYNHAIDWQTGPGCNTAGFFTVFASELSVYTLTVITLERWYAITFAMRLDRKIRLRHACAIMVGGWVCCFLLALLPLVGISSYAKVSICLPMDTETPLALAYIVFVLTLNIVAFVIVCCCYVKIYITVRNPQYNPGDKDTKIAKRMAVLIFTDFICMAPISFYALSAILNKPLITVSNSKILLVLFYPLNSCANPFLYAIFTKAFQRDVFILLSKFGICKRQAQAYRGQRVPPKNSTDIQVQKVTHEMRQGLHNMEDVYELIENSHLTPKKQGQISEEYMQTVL
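HEK 293 cells stably expressing TSHR and a cAMP-gated CNG channel; parental CNG-only cells as counterscreen. Cells preloaded 60 min with membrane potential dye plus 100 uM RO 20-1724, then compound 30 min; fluorescence read at 590 nm.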
Resorufin autofl = compound fluoresces in the resorufin spectral region; Compound fluorescence, resorufin region 547/598 nm, buffer; hits give high values; actives 0.04% (n = 59,000); max dye-equivalent concentration, M; active = above 10 nM dye equivalent; inconclusive = 1 to 10 nM; inactive = 1 nM or less; a few of its hits are not listed in these tables; also: highest value over a series up to 38 µM
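Tris 100 mM pH 8.0; compound added, 15 min RT; CCD imager read, ex 547 nm/em 598 nm; signal normalized to resorufin standard curve (six concentrations per plate) as dye-equivalent concentration.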
A488 fluor = A488 region autofluorescence | actives 0.1% (n = 59,000) | compound autofluorescence, A488 spectral region, dye equivalency; hits give high values | AID 591 | max dye equivalency, M; active = above 10 nM dye equivalent; inconclusive = 1 to 10 nM; inactive = 1 nM or less; about half of its hits are not listed in these tables;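 also: highest value over a series up to 38 µM; compound alone in buffer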
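Compound autofluorescence was read in 100 mM Tris pH 8.0 after 15 min at room temperature, ex 480 nm/em 540 nm. Intensities were converted to A488 dye-equivalent concentration using an on-plate six-point A488 standard curve.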
AID923 = qHTS Assay for Allosteric/Competitive Inhibitors of Caspase-1: Spectroscopic Profiling in AFC Spectral Region; Potency, µM (highest dose often 57.5 µM), for the others: top-dose fluorescence increase, usual class: activators; compound fluorescence, AFC spectral region (405/520 nm); almost no hit is shown here; actives 1.1% (n = 75,000); active = well fitted activation curve with a large enough effect; inconclusive = small, poorly fitted or top-dose-only effect;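 also: potency is read from the fitted curve at half-maximal effect; 0% is about no effect; scaled to a free AFC standard on each plate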
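Compound autofluorescence profiled at 405 nm ex/520 nm em during kinetic caspase 1 run (50 nM enzyme, 5 uM Ac-WEHD-AFC, HEPES pH 7.5, 10 mM DTT). Titration up to 57 uM; baseline from regression intercept, normalized to AFC standard curve.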
A647 autofl = compound autofluorescence in A647 spectral region. Compound fluorescence, A647 channel (570/671 nm), Tris buffer. max dye-equivalent concentration, M. 59,000 tested, under 10 active. AID 592; active means above 1 µM dye equivalent; inconclusive means 0.1 to 1 µM; inactive means 0.1 µM or less;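 also: values scaled relative to a standard on each plate; highest value over a series up to 38 µM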
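Each compound's intrinsic fluorescence at 570 nm excitation and 671 nm emission is measured across its concentration series in 100 mM Tris, pH 8.0, after 15 min at room temperature, and reported relative to an A647 curve.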
Active calls of the source: *; i = inactive; ? = inconclusive; . = no result given; [ ] = dose if it differs, or a comment. Some of the compounds tested; rates above refer to the full screens.

SMILES | TSHR ag | Resorufin autofl | A488 fluor | AID923 | A647 autofl
Fc1ccc(-n2c(Cc3ccccc3)nnc2SCc2nc(-c3cccs3)no2)cc1 | ? | i | i | 1.0% | 1.92e-08
Cn1c(=O)c2cc(S(=O)(=O)NCCC(=O)NCc3ccccc3Cl)ccc2n(C)c1=O | -2.5%[11.4 µM] | i | i | 0.2% | 3.71e-08
Cc1ccccc1-c1nc(CN2CCC(C(=O)NCCCN3CCCC3)CC2)c(C)o1 | 1.9% | i | i | 0.2% | 2.62e-08
CCOc1ccc(CCNS(=O)(=O)c2c(C)n[nH]c2C)cc1OCC | -2.4% | i | i | 0.1% | 1e-09
O=C(OCCN1CCOCC1)c1ccc(OCCN2CCOCC2)cc1 | . | i | i | . | 1.3e-09
CC1(C)C(c2cccs2)=[N+]([O-])C2(CCCCC/C2=N\O)N1O (centres undefined) | -0.6% | i | i | -0.1% | 1e-09
CC(=O)Nc1ccc(OC(=O)C(CCS(C)(=O)=O)N2C(=O)c3ccccc3C2=O)cc1 (centres undefined) | 1.0% | i | i | 10.3% | 2e-08
CCOC(=O)CSc1nc2cc(OC)ccc2cc1C#N | 13.9% | i | i | 13.4% | 1e-09
COC(=O)c1sc2nc3c(cc2c1N)COC(C)(C)C3 | -2.9% | . | . | 17.1% | .
COc1ccccc1NC(=O)C1CC(=O)N(c2ccc(F)cc2)C1 (centres undefined) | -2.3% | i | i | 0.5% | 1e-09
O=S(=O)(NCCc1ccncc1)c1ccc(S(=O)(=O)N2CCCCCC2)cc1 | 1.6% | i | i | -0.2% | 2.7e-09
COC(=O)[C@@]1(Cc2ccc(OC)cc2)[C@H]2c3cc(C(=O)N4CCCC4)n(Cc4ccc(C)c(F)c4F)c3C[C@H]2CN1C(=O)c1ccccc1 | ? | . | . | 1.8% | .
CCCCCOc1ccc(OC(=O)c2ccncc2)cc1 | -4.5%[11.4 µM] | i | i | -0.5% | 3.32e-08
O=C(CSc1nnc(Cc2csc(Nc3cccc(Cl)c3)n2)o1)N1CCc2ccccc21 | -1.4% | i | i | 3.4% | 1e-09
CCOC(=O)c1c(CN2CCN(C)CC2)oc2ccc(O)cc12 | -0.7% | i | i | -0.9% | 3.4e-09
Cc1c(NC(=O)c2cc3nc(-c4ccccc4)cc(C)n3n2)c(=O)n(-c2ccccc2)n1C | -0.2% | i | i | -1.0% | 3.9e-09
COc1ccccc1NC(=O)NCCN1C(=O)C2C3C=CC(C3)C2C1=O (centres undefined) | -2.3% | . | . | -2.5% | .
COc1ccc(N2CCN(C(=O)CSc3nnc(C)c(=O)[nH]3)CC2)cc1 | ? | i | i | -0.6% | 7.5e-09
CCOC(=O)CCCN | 0.1%[11.4 µM] | i | i | -1.5%[11.5 µM] | 3.69e-08
Cc1ccc(-c2csc(NC(=O)CSc3ncn(-c4ccccc4)n3)n2)cc1 | 11.3% | i | i | -0.4% | 1e-09
CC(C)Nc1nc(C#N)nc(NC(C)C)n1 | 23.6% | i | i | -0.4% | 2.57e-08
N#CC12CCCCC1CC1CCCCC1(C#N)N2CCO (centres undefined) | ? | i | i | 4.5% | 2.66e-08
COc1ccccc1NC(=O)Cn1cnc2c(cnn2-c2ccccc2)c1=O | 14.0% | i | i | 0.0% | 6.2e-09
CC(OC1=CC(=O)CCC1)C(=O)c1ccccc1 (centres undefined) | 3.6%[11.4 µM] | . | . | 0.4% | .
CN(C)c1oc(-c2ccc(OCc3ccccc3)cc2)nc1C#N | 3.9% | i | i | 0.7% | 2.83e-08
COC(=O)C/C=C\[C@@H](C)[C@@H](/C=N\O[C@@H](C)c1cc(-c2c(C)cc(C)cc2C)no1)NS(=O)(=O)c1ccc(C)cc1 | 12.1%[11.4 µM] | . | . | 1.1%[11.5 µM] | .
O=C(NC1CCCCC1)N(CCN1CCOCC1)Cc1cc2cc3c(cc2[nH]c1=O)OCCO3 | 4.8% | i | i | 0.7% | 1.72e-08
CCCn1c(N)c(C(c2ccc(C(=O)OC)cc2)N2CCN(c3ccccc3)CC2)c(=O)[nH]c1=O (centres undefined) | 11.0% | i | i | -0.3% | 1e-09
COC(=O)c1ccc(/C=N\n2c(C)nnc2C)cc1 | 2.4% | . | . | -0.3% | .
Clc1ccc(Oc2nc(N3CCOCC3)nc(N3CCOCC3)n2)c(C2CCCCC2)c1 | 77.9% | i | i | -2.4% | 5.11e-08
CCOC(=O)c1ccc(S(=O)(=O)NC2CCCCCCC2)n1C | 11.4% | i | i | 1.5% | 1e-09
Cc1noc(C)c1CSc1nnc(C)c(=O)[nH]1 | 0.5% | i | i | 0.2% | 1e-09
Cc1c(N=C2NC(=O)C(CC(=O)Nc3ccccc3)S2)c(=O)n(-c2ccccc2)n1C (centres undefined) | 4.0% | i | i | 0.7% | 4.19e-08
O=c1c(CCc2ccccc2)nc2cnc(Oc3ccccc3)nc2n1C[C@H]1CCCO1 | ? | i | i | 2.9% | 1e-09
COc1ccc(S(=O)(=O)N2CCC(C(=O)NCC(c3cccs3)N(C)C)CC2)cc1 (centres undefined) | 0.5%[11.4 µM] | i | i | 1.0% | 2.82e-08
COc1cccc(COc2nc3c(c(=O)n(C)c(=O)n3C)n2C)c1 | . | i | i | . | 2.9e-09
Cc1ccc(-n2nnnc2SCC(=O)N2CCc3ccccc3C2)cc1 | 18.5% | i | i | -0.3% | 3.1e-09
Cc1ccc(-n2c(CSc3nc(C)cc(C)n3)nnc2SCC(=O)N2CCCC2)cc1 | -0.8% | i | i | 0.7% | 4.85e-08
N#CCCNc1ccc(OCCC#N)cc1 | 5.5% | i | i | 0.6% | 9.4e-09
Oc1ccc(O)c2c(O)cccc12 | ? | . | . | 7.9% | .
CCOC(=O)N1CCN(C(=O)C2CCC(=O)N2C(C)C)CC1 (centres undefined) | 2.8% | i | i | 0.0% | 1.8e-09
CC(C)CN1CCCC2(CCN(C(=O)c3ccco3)CC2)C1 | 11.8% | i | i | 5.9% | 1.2e-09
COC(=O)[C@@]1(Cc2ccc(F)cc2)[C@H]2c3cc(C(=O)N(C)C)n(CCF)c3C[C@H]2CN1C(=O)c1ccccc1 | ? | . | . | 2.5% | .
CC1Cc2cc(/C(O)=C3\C(=O)C(=O)N(CCN(C)C)C3c3ccccc3F)ccc2O1 (centres undefined) | 0.8% | i | i | -0.9% | 1e-09
CCOC(=O)N1CCN(S(=O)(=O)c2cc(Br)cnc2N)CC1 | -5.7% | i | i | -1.9% | 1e-09
COc1ccc2[nH]c3cc4c(=O)c5cc(OC)ccc5[nH]c4cc3c(=O)c2c1 | -1.9%[11.4 µM] | i | i | -4.9%[11.5 µM] | 2.6e-09
COc1ccc(C(c2sc3nc(C)nn3c2O)N2CCN(Cc3ccccc3)CC2)cc1OC (centres undefined) | -3.8% | . | . | 2.9% | .
CCc1ccc(-c2nc(CN3CCC(C(=O)NCc4ccccc4OC)CC3)c(C)o2)cc1 | -24.7% | i | i | -0.7% | 2.85e-08
Cc1cc(C(=O)Nc2ccc(S(=O)(=O)Nc3nccs3)cc2)c(C)o1 | -3.0% | i | i | 0.8% | 3.3e-09
COc1cccc(C(=O)N(Cc2nc(-c3ccc(C)cc3)no2)C(C)C)c1 | ? | i | i | 0.0% | 1e-09

Next structures
SMILES | TSHR ag | Resorufin autofl | A488 fluor | AID923 | A647 autofl
Cn1nc(OCc2ccccc2)ccc1=O | -1.9% | i | i | 0.1% | 1e-09
O=C(NCc1n[nH]c(=S)n1-c1ccc(F)cc1)c1ccco1 | -1.2%[11.4 µM] | i | i | -0.3% | 1e-09
O=C(CN1C(=O)CC(c2ccco2)Sc2ccccc21)Nc1ccccc1F (centres undefined) | 63.6% | . | . | -0.6% | .
COc1cc(S(=O)(=O)N2CCCCCC2)c(OC)cc1Br | ? | . | . | -1.0% | .
CCN(CC)CCn1c(-c2ccccc2)nc2c(NC3CCCCC3)nc(C)nc21 | ? | . | . | -0.8% | .
CCOC(=O)CN=C1CC(C)(C)CC2=C1Sc1ncnc(N(C)C)c1N2 | 0.4% | ? | ? | 9.1% | 1e-09
Cc1nc(N2CCOCC2)c2nc(-c3ccccc3)n(CC3CCN(C)CC3)c2n1 | 13.7% | . | . | 1.6% | .
COC(=O)C/C=C\[C@@H](C)[C@@H](/C=N\OC[C@@H](O)COCc1ccco1)NS(=O)(=O)c1ccc(C)cc1 | -4.8%[11.4 µM] | . | . | -3.3%[11.5 µM] | .
CS(=O)(=O)Nc1ccc2c3c(cccc13)CC2 | -2.6% | . | . | -1.6% | .
Cc1cc(Cl)nc2ccc(Cc3ccc4nc(Cl)cc(C)c4c3)cc12 | 8.4%[11.4 µM] | i | i | -2.7%[11.5 µM] | 9.5e-09
O=C(Cc1ccc(F)cc1)Nc1c2c(nn1-c1cccc(Cl)c1)CS(=O)C2 (centres undefined) | ? | i | i | 0.4% | 3.7e-09
CC(C)N1C(=O)CCC1C(=O)N1CCC(Cc2ccccc2)CC1 (centres undefined) | 1.3% | . | . | 0.8% | .
Cc1cc(=O)[nH]c(Nc2c(C)n(C)n(-c3ccccc3)c2=O)n1 | -7.1% | i | i | 0.3% | 6.6e-09
Cc1ccc(NC(=O)NC2=N/C(=C(/C#N)C(=O)N3CCCC3)c3ccccc32)cc1 | ? | i | i | 0.8% | 1.64e-08
Cc1cccc(N2CCN(S(=O)(=O)c3ccc4c(c3)n(C)c(=O)c(=O)n4C)CC2C)c1 (centres undefined) | 11.4% | i | i | 0.1% | 1e-09
Cn1cccc1C(=S)N1CCOCC1 | 7.0% | i | i | -0.4% | 5.41e-08
Cc1nc2ccc(NC(=O)c3ccc(S(=O)(=O)N4CCOCC4)cc3)cc2s1 | 26.2% | . | . | -1.7% | .
Cc1ccc(-c2nn(CC(=O)NCCN3CCOCC3)c(=O)c3ccccc23)cc1 | . | i | i | -0.5% | 3.03e-08
Cc1ccc([C@@]2(C)CC/C(=N/N=C3\CC[C@](C)(c4ccc(C)c(C)c4)c4cc(C)c(C)cc43)c3cc(C)c(C)cc32)cc1C | 2.1%[11.4 µM] | i | i | -1.7%[11.5 µM] | 1e-09
CCCC(c1nnnn1CC(=O)OCC)N(Cc1cc2c(C)cc(C)cc2[nH]c1=O)C1CCCC1 (centres undefined) | 13.4% | i | i | 7.0% | 6.58e-08
CCOCCOC(=O)C(C)Sc1n[nH]c(=O)[nH]c1=O (centres undefined) | -2.4% | . | . | 0.4% | .
Cc1nn(CC(=O)Nc2nnc(CC(=O)N3CCCC3)s2)c(=O)c2ccccc12 | 7.6% | i | i | 1.3% | 1e-09
CCn1c(CSc2nc3ccccc3s2)nnc1SCC(=O)c1ccc2c(c1)OCCO2 | ? | i | i | 1.3% | 1.27e-08
CCCn1c(NCc2cccc(OC)c2OC)nc2ccccc21 | ? | i | i | -0.1% | 3.6e-09
CSC1CCCCC1(O)CSc1nc2c(cc1C#N)CCCC2 (centres undefined) | . | i | i | -0.6% | 5.5e-09
Cc1ccc(C(C)C)c(OCc2nc(-c3nonc3N)no2)c1 | ? | . | . | -6.6% | .
CC1(C)CC(=O)C=C(NCCCNC2CCCCC2)C1 | 29.2% | . | . | -1.0% | .
CN(C)c1cc(N)c2ccccc2n1 (tested in a mixture with another compound) | ? | i | i | 0.6% | 1.14e-08
CN(C)c1ccc(-c2cncnc2NCc2cccs2)cc1 | 24.9% | i | i | -1.8% | 1.8e-09
Cn1c(=O)c(C#N)c(-c2ccccc2)n2cnnc12 | -3.1% | i | i | 0.2% | 1e-09
CCS(=O)(=O)N1CCC(C(=O)Nc2cc(Cl)ccc2O)CC1 | 8.8% | i | i | 0.0% | 2.4e-09
COc1ccc(C)cc1S(=O)(=O)N(C)CC(=O)Nc1ccc2c(c1)OCCO2 | -1.3% | i | i | -0.4% | 1e-09
